gsp agonist: gsp mutant agonism | 0.13% of 340,000 active | gsp mutant cells, cAMP HTRF, 30 min; control for the full effect not named in the record | Potency, µM (doses to about 76.9 µM), for the others: top-dose activation (cAMP increase), most hits filed as activators; active = well fitted activation curve with a large enough effect; inconclusive = small, poorly fitted or top-dose-only effect, or another doubt; inactive = no such curve, though single readings can be large or run the other way; cell line not stated here;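 further: phosphodiesterase inhibitor Ro 20-1724 added with compounds to block cAMP breakdown; potency means the concentration at half of the fitted maximal effect; nearly all actives have a fitted effect of over 60% in size; about a fifth of the inactives were tested at one dose only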
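Cells in DMEM/10% FBS with G418 were pretreated with compounds in DMSO plus […] (300 uM stock) for 30 min at 37C. cAMP was measured by HTRF (cAMP-d2 plus anti-cAMP antibody-K) after 30 min at room temperature.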
PINK1 expr mod: PINK1 expression modulation | PINK1 immunofluorescence, high-content cytometry, 24 h | Potency, µM (highest dose often 76.6 µM), without a hit: at the highest dose activation (PINK1 increase), actives largely listed as activators | 0.2% of 410,000 active | AID 624263; active = well fitted activation curve with a large enough effect; inconclusive = small, poorly fitted or top-dose-only effect; inactive = flat fitted curve, though single readings scatter; cell line not stated here;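 further: potency means the concentration at half of the fitted maximal effect; % of control where 0% means no effect; nearly all actives have a fitted effect of over 65% in size; a mitochondrial uncoupler was the plate control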
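PINK1 protein, normally rapidly degraded, was detected by immunofluorescence after 24 hour compound treatment of a stable cell line. Titration data (5 concentrations) came from laser-scanning cytometry, with CCCP-treated wells as controls.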
Sfp PPTase inh: Sfp phosphopantetheinyl transferase inhibition; Q9F4F7; Potency, µM, inactives show max response, negative = inhibition, hits mostly inhibitors; Biochemical Sfp PPTase activity, qHTS; AID 1490; 3.5% of 310,000 active; active means well fitted inhibition curve with a large enough effect; inconclusive means small, poorly fitted or top-dose-only effect, or another doubt; inactive means no such curve, though single readings can be large or run the other way;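 further: the enzyme is Sfp with the accession as filed and its product quenches rhodamine fluorescence; potency means the concentration at half of the fitted maximal effect; 0% = enzyme reaction without inhibitor and -100% = no enzyme wells; top concentration of the series not given in the record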
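Compounds were incubated with enzyme (final 15 nM) for 15 min at room temperature before substrate addition started the reaction. Fluorescence at 525 nm excitation, 598 nm emission was recorded immediately and after 30 minutes.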
ClpP mod: qHTS Assay for Activators of ClpP; ATP-dependent Clp protease proteolytic subunit (Bacillus subtilis (strain 168)), P80244; purified B. subtilis ClpP, FRET peptide cleavage, 20 min; Potency, µM (series often up to 57.5 µM), inactives show top-dose activity change, negative = active; 1.9% of 340,000 active; AID 651965, 2013; active = well fitted falling curve with a large enough effect; inconclusive = small, poorly fitted or top-dose-only effect; inactive = no such curve, though single readings can be large or run the other way; further: potency means the concentration at half of the fitted maximal effect; the source files actives as falling curves though it sought activators and does not explain the sign; nearly all actives have a fitted effect of over 65% in size; many hits overshoot -100%
Target sequence (P80244 whole entry, looked up): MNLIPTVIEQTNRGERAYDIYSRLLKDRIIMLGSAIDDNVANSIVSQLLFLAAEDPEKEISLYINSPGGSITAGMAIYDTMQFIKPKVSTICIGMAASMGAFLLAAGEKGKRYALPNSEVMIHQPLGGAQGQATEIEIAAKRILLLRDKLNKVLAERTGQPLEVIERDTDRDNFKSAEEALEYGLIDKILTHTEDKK
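FRET quenching reversal measured ClpP activation: 10 microg/mL B. subtilis ClpP at pH 8 with the FRET-FV decapeptide, read at 430 nm after 320 nm excitation. The 20-min minus 0-min signal was scaled between DMSO/no-enzyme wells and ADEP (5.8 microM final).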
Menin MLL FP FL: inhibitors of human menin-MLL interaction, wild-type MLL peptide | AID 1766 | 290,000 tested, under 10 active | Fluorescence polarization, fluorescein-MLL peptide displacement from menin | FP activity change, % at 61.4 µM; inconclusive = falling polarisation curve, or a change in total fluorescence; inactive = total fluorescence flat and polarisation flat or rising; no compound was filed as active; the % refers to the polarisation; negative = inhibition;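 further: % of control where 0% means no effect; inhibitors lower the polarisation; unlabelled MLL peptide was the positive control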
D2 ag: activates the human D2 dopamine receptor; DiscoveRx PathHunter D2 beta-arrestin, luminescence, 90 min; 100% = 57 uM dopamine signal; 0.084% of 360,000 active; P14416; activation, % (no concentration beside the values); AID 624465; in the data active = activation above about 40%; inconclusive = about 15% to 40%; inactive = below about 15%; further: compound concentration not given in the record; the text of the record calls up to 30% inactive
Target sequence (P14416 whole entry, looked up): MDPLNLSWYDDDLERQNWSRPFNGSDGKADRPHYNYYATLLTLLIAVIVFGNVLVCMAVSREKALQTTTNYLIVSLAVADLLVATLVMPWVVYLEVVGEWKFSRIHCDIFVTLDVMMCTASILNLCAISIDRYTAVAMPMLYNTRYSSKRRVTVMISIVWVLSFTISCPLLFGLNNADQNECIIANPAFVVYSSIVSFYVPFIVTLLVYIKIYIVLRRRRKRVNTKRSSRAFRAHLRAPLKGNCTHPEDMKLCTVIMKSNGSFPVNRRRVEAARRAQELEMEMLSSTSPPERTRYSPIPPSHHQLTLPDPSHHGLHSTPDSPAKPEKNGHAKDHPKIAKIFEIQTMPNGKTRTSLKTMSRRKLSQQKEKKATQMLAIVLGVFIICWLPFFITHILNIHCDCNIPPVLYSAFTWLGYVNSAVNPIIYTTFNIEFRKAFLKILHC
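DiscoveRx PathHunter D2 beta-arrestin cells (2,100/well) attached overnight, then compound-stimulated 90 min at 37 C in HBSS/10 mM HEPES/0.1% Tween-20 buffer; beta-galactosidase complementation read by luminescence after 1 h at ambient temperature. Dopamine 57 uM final (EC100) as control.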
gsp antag: antagonists of gsp mutant (McCune-Albright syndrome) | Potency, µM (series often up to 76.9 µM), inactives show at the highest dose activity change, negative = inhibition, most hits filed as inhibitors | gsp-mutant cells, cAMP HTRF, 30 min; control for the full effect not named in the record | 0.4% of 340,000 active; active = falling curve of any shape with a large fitted effect; inconclusive = falling curve, mostly with a smaller effect; inactive = flat or rising curve; cell line not stated here;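 further: intracellular cAMP measured with PDE inhibitor Ro 20-1724 present during compound exposure; potency means the concentration at half of the fitted maximal effect; on the % scale 0 is the no-effect control and ±100 the full control effect; nearly all actives have a fitted effect of over 65% in size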
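Measurement of cellular cAMP by homogeneous time-resolved fluorescence following a 30 min compound exposure at 37C. The PDE inhibitor […] was present throughout; the assay buffer was DPBS with 0.05% BSA and 0.005% Tween 20.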
Starred values were filed as active, the others as inactive; ? = inconclusive; / = not tested or not shown; & = joins results of further samples; [ ] = another dose, or the depositor's remark.

SMILES	gsp agonist	PINK1 expr mod	Sfp PPTase inh	ClpP mod	Menin MLL FP FL	D2 ag	gsp antag
O=C(NN1CCOCC1)C12CC3CC(CC(C3)C1)C2	-24.3%	5.4%	30.4%[activator]	1.3%	2.2	-3.7	12.8%
COc1ccc2cc(C(N)=O)/c(=N\NC(=O)c3ccccc3)oc2c1	11.1%	3.1%	-8.0%	3.7%	-1.7	4.5	-29.1%
O=C(c1ccc(S(=O)(=O)N2CCCCCC2)cc1)N1CCN(c2ccccn2)CC1	-37.7%[inhibitor]	1.6%[38.3 µM]	-9.8%	0.3%	3.5	0.0	3.2%
O=C(Nc1nnc(Cc2ccc(Cl)cc2)s1)c1cccnc1	-10.2%	0.6%	5.2%	0.0%	14.0	-1.6	-10.2%
CN1C(=O)C2(Oc3ccccc3C3CC(c4ccccc4)=NN32)c2ccccc21 (stereo unspecified)	-6.2%	0.1%	-14.4%	-5.5%	3.5	3.6	-15.7%
CCc1cc(=O)oc2c(C)c(OC(C)C(=O)NCCCn3ccnc3)ccc12 (stereo unspecified)	39.8%	-0.7%	8.1%	4.0%	1.7	4.5	-24.5%
O=C1/C(=C/c2ccco2)SC(=S)N1CCC(=O)N1CCCCC1CCO (stereo unspecified)	0.8%	-1.8%	50.1µM*	1.2%	/	?	1.0%
Cc1nc(NNC(=O)c2ccc([N+](=O)[O-])cc2)cc(-c2ccccc2)n1	27.4%[15.4 µM]	-0.1%	11.4%	2.1%	8.4	-9.5	-26.5%
CCCCOc1ccc(CSc2nnc(C)n2N)cc1[N+](=O)[O-]	-2.5%[15.4 µM]	1.0%	1.5%	/	1.7	-2.4	8.2%
COc1ccc(OC)c(Nc2nc3nonc3nc2N2CCCC(C)C2)c1 (stereo unspecified)	-25.3%	?	13.5%	/	3.4	-0.3	-7.8%
CC1CCCCC1NC(=O)CN1C(=O)NC(C)(c2cc(F)ccc2F)C1=O (stereo unspecified)	8.3%	-1.0%	/	0.4%	/	1.0	15.1%
CCN(CC(=O)Nc1ccc(NC(C)=O)cc1)C(=O)c1ccc2c(c1)S(=O)(=O)N=C1CCCCCN12	-23.2%[15.4 µM]	-0.3%	/	-1.7%	/	0.4	-3.2%
COc1ccc(NC(=O)C2CC(=O)n3ncnc3N2)cc1 (stereo unspecified)	8.1%	?	18.2%	-1.2%	0.7	-0.2	14.2%
c1ccc(-c2nc3c4ccccc4ccn3c2CN2CCCCC2)cc1	7.5%[15.4 µM]	15.7%	-12.1%	/	-3.4	-3.9	-2.4%
COCCN1Cc2cccc(C(=O)Nc3cccc(C)c3C)c2C1=O	17.3%	-1.5%	8.0%	0.7%	0.0	-2.1	-26.0%
CC(c1ccco1)N(C(=O)COc1ccccc1[N+](=O)[O-])c1ccccn1 (stereo unspecified)	6.5%	-2.5%	14.3%	15.8µM*	-7.1	0.4	5.9%
CCOC(=O)c1[nH]c2ccc(OC)cc2c1NS(=O)(=O)c1ccc(Cl)s1	-2.7%[15.4 µM]	-0.4%	12.3%	2.6%	0.9	1.1	-22.0%
Cn1c(N)c(C(=O)COC(=O)C2(c3ccc(Cl)cc3)CCCC2)c(=O)n(C)c1=O	-4.7%	8.4%	-4.0%	-1.5%	3.4	-3.0	-4.9%
O=[N+]([O-])c1cccc(-c2ccc3nnc(SCc4ccccn4)n3n2)c1	-11.6%	1.5%	-3.4%	1.0%	-0.4	-4.3	-7.4%
COc1ccc(Cc2nnc(SCC(=O)c3ccccc3)o2)cc1	17.0%	-0.2%	-2.8%	-1.4%	-0.6	-3.8	-3.5%
N#C/C(=C\C=C\c1ccccc1[N+](=O)[O-])c1nc(-c2ccc3c(c2)OCO3)cs1	-8.7%	/	7.7%	-5.3%	14.3	-0.7	5.4%
CC(Oc1ccccc1F)c1nnc(SCC(=O)c2c(N)n(C3CC3)c(=O)[nH]c2=O)o1 (stereo unspecified)	-2.0%	-0.1%	/	-4.0%	/	-4.6	10.9%
C=C(C)Cc1c(C)nc(-c2ccccc2)[nH]c1=O	1.9%	1.7%	-7.5%	-1.5%	4.0	-2.2	-0.6%
Cc1ccc(S(=O)(=O)NC(CC(C)C)C(=O)Oc2ccc3c4c(c(=O)oc3c2)CCC4)cc1 (stereo unspecified)	-3.2%	-1.7%[38.3 µM]	14.4%	223.3%	0.5	-0.3	-16.9%
COc1ccc(C(=O)OCCNC(=O)c2c(Cl)nc3ccccn23)cc1	?	-0.4%	14.3%	2.8%	1.7	-3.0	21.7%

Other structures
SMILES	gsp agonist	PINK1 expr mod	Sfp PPTase inh	ClpP mod	Menin MLL FP FL	D2 ag	gsp antag
CCc1ccc2c(c1)C1(SC(NC(C)=O)=NN1C(C)=O)C(=O)N2C(C)C (stereo unspecified)	-29.5%	-4.5%[38.3 µM]	-1.1%	0.0%	-1.3	3.3	-2.5%
O=S(=O)(c1ccc(=S)[nH]c1)N1CCCCC1	2.7%	-0.1%	/	-3.0%	/	-7.3	5.9%
CCOc1ccc(OCCOCCOc2c(Cl)cccc2Cl)cc1	-55.3%[inhibitor]	7.5%	/	1.7%	/	-5.4	-5.5%
CCOc1ccc(C2CC(=O)NC(SCC(=O)OC)=C2C#N)cc1 (stereo unspecified)	0.8%	1.0%	9.7%	2.4%	0.5	4.6	-7.0%
CC(C)(C)c1ccc(-c2nc3cc(N)ccc3o2)cc1	17.0%	5.9%	9.8%	/	1.1	1.3	1.8%
COc1ccc(C(=O)COC(=O)c2ccc(Cl)nc2)c(OC)c1	-0.3%[15.4 µM]	-1.1%	/	-17.6%	/	-4.3	7.9%
COc1cc(/C=C2\SC(N3CCCCC3)=NC2=O)cc(OC)c1OC	4.1%	1.9%	5.8%	/	6.1	2.0	15.3%
CCC(=O)N(Cc1cc2cc(OC)ccc2[nH]c1=O)c1ccccc1C	-2.1%	0.7%	6.4%	?	2.0	-6.2	-3.3%
O=S(=O)(c1ccccc1)N1CCN=C1SCc1ccc(Cl)cc1	-29.6%	-0.2%	-9.7%	-4.1%	1.3	-1.8	3.2%
CCCCC1=CC2=CC(=O)C(C)(OC(=O)CCc3ccccc3)C(=O)C2=CO1 (stereo unspecified)	/	0.5%	14.4%&-23.9%	0.1%	?	0.3	-0.5%
CCc1ccccc1NC(=O)CNC(=O)CCC(=O)c1cc(C)sc1C	-35.5%[inhibitor]	0.2%	/	-4.1%	/	-0.5	/
Cc1ccc(N(CCC#N)C(=O)CSc2nc3ccccc3c(=O)[nH]2)cc1	-7.5%	-0.3%	/	-1.5%	/	-2.4	50.1µM*
COC(=O)[C@@]12CCCN1[C@H](c1ccc(-c3ccc(F)cc3)c(OC)c1)[C@H]1C(=O)N(C)C(=O)[C@H]12	/	1.5%	/	-16.1%	/	-3.3	-8.2%
Cc1csc2nc(CNC(=O)c3cccc(C(F)(F)F)c3)cn12	?	2.6%	14.3%	-0.1%	3.6	-3.2	9.1%
O=C(CNC1CCCC1)Nc1cc(Cl)ccc1[N+](=O)[O-]	-1.2%[15.4 µM]	4.3%	56.2µM*	/	4.7	-3.3	-2.6%
COc1ccc(CCNC(=O)c2nnn(CC(=O)Nc3cccc(F)c3)c2N)cc1OC	-1.6%[15.4 µM]	2.7%	-14.2%	/	-1.5	0.7	-22.0%
CC(C)N(C(=O)Cn1cc(SCC(=O)N2CCCC2)c2ccccc21)C(C)C	12.2%[15.4 µM]	2.4%	20.4%	/	-2.4	-3.3	-6.4%
Cc1cccc(C)c1NC(=O)CNC(=O)c1ccc2ccccc2n1	-15.3%	-1.4%	/	-1.5%	/	1.6	-23.9%
CC(=O)Nc1ccc(S(=O)(=O)Oc2cccc(/C=N/N=C3/NC(=O)C(CC(=O)O)S3)c2)cc1 (stereo unspecified)	15.9%[15.4 µM]	-0.1%	2.7%	/	2.0	-1.1	0.2%
COc1ccc(CCN=C(N)NS(=O)(=O)c2ccc(OC)c(OC)c2)cc1OC	4.8%	-1.6%	13.9%	-0.9%	-1.8	-1.5	-5.7%
CCN(c1ccccc1)c1cc(C)nc2ncnn12	-101.6%[inhibitor]	0.9%	6.2%	1.4%	-1.0	0.4	1.1%
c1cn(CCCNc2ncnc3sc4c(c23)CCC4)cn1	?	-1.7%	10.5%	-5.3%	2.7	-0.8	13.6%
CC(C)c1ccc(NC(=O)Cn2c(=O)oc3cccnc32)cc1	-6.5%[15.4 µM]	1.8%	5.3%	-0.8%	-0.6	0.9	-7.5%
CCOC(=O)C1(C)CCCN1C(=O)c1cccs1 (stereo unspecified)	/	-0.3%	/	1.5%	/	2.9	/
COc1cc(C(=O)NCC(=O)OCC(=O)N2CCc3ccccc32)cc(OC)c1OC	-0.2%[15.4 µM]	2.7%	-11.5%	0.0%	3.2	-6.4	7.0%

Additional structures.
SMILES	gsp agonist	PINK1 expr mod	Sfp PPTase inh	ClpP mod	Menin MLL FP FL	D2 ag	gsp antag
CCCCC(=O)Nc1c(-c2ccc(OC)c(OC)c2)c(=O)c2ccccc2n1C	-1.8%	-3.5%	3.6%	-1.6%	1.4	-1.6	10.8%
CC12CN3CC(C)(CN(C1)C3c1c[nH]c3ccccc13)C2=O (stereo unspecified)	18.3%[15.4 µM]	-0.8%	21.2%	/	-7.3	-2.5	4.3%
COC(=O)C1=C(C)NC(C)=C(C(=O)OC)C1C(=O)OCC(=O)c1ccc(Br)cc1	-15.0%	-0.9%	/	-3.7%	/	4.0	1.7%
Clc1ccc(-c2ccc(C=Nc3ccc(N4CCOCC4)cc3)o2)cc1	-2.3%	4.2%	17.6%	-9.8%	5.5	1.0	-4.2%
O=C(CCN1CCOCC1)NNC(=O)Nc1cccc(Cl)c1	29.1%	1.0%	9.5%	0.9%	/	-2.1	11.6%
CCN(CCNS(=O)(=O)c1ccc2c(c1)oc(=O)n2C)c1ccccc1	-86.8%[inhibitor]	-1.0%	-6.3%	-0.6%	4.2	0.9	1.3%
CCn1c(CC(=O)Nc2ccccc2C)nnc1SCC(=O)NC1=NCCS1	-2.7%[15.4 µM]	-1.3%	7.2%	-0.6%	/	-5.9	-21.9%
NC(=O)CC(NC(=O)c1ccc(Br)cc1)c1ccc(NC2CCCCC2)c([N+](=O)[O-])c1 (stereo unspecified)	/	?	3.7%	2.4%	0.0	-2.6	-9.8%
Cc1occc1C(=O)NN1C(=O)C2C3CCC(O3)C2C1=O (stereo unspecified)	3.0%	5.7%	9.4%	-4.3%	3.6	-5.1	-15.4%
N#C/C(=C\c1cn[nH]c1-c1ccccc1)C(=O)NC1CCCCCC1	-33.8%[inhibitor]	6.0%[38.3 µM]	-4.3%	-2.2%	6.2	-2.3	-7.0%
